Screening data (PubChem)
Beta2AR agonist: beta2AR agonists driving receptor internalization, primary screen, cell-based, FAP fluorogen, flow cytometry; Beta-2 adrenergic receptor (Homo sapiens), P07550; Am2.2-beta2AR cells; reference of the scale not given here; response, % (concentration not given with the values); 340,000 tested, 0.43% active; AID 504454, 2011;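 active = response above a set limit, near 3 SD of response in nonfluorescent compounds, cut at about 42% in these data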;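 note: stock transfer was 100 nL into about 11 µL; a reference agonist was the positive control; negative values mostly stem from fluorescent compounds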
Target sequence (P07550 whole entry, looked up): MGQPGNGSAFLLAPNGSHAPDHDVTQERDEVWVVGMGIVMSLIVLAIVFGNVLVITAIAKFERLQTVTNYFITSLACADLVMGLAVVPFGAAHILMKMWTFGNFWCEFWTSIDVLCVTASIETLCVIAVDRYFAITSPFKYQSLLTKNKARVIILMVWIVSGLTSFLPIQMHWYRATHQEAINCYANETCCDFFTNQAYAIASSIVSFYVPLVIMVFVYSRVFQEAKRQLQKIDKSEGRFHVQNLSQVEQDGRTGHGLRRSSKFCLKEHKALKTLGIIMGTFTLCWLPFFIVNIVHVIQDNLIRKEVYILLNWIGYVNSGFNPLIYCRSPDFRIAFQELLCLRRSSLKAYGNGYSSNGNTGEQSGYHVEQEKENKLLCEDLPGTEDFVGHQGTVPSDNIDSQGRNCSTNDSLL
Beta apoptosis: inhibitors of cytokine-induced beta cell apoptosis, primary screen, luminescence. INS-1E cytokine-induced death, ATP luminescence, 48 h; percent of positive-control rescue, neutral wells zero. protection from apoptosis, % (test concentration not listed). 300,000 tested, 0.8% active. AID 435005, 2010;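 active = all replicates at 75% or more, or half of them and the mean; inconclusive = half reach 75% but not the mean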;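 note: 0% = cytokine-treated negative control wells and 100% = positive control rescue; higher means more ATP so stronger rescue from cytokine killing; wells of about 40 µL received 100 nL stock; the first replicate is given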
ALR H2O2 inh: inhibitors of human ALR sulfhydryl oxidase, primary screen, biochemical, H2O2 detection, HRP-luminol luminescence, single point; FAD-linked sulfhydryl oxidase ALR (Homo sapiens), P55789; purified ALR, DTT oxidation; inhibition, % (test concentration not listed); 290,000 tested, 3.8% active;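 active = mean and each replicate at 75% or more; inconclusive = only one of the two met; inactive = neither met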;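 note: stock transfer was 7.5 nL into about 7.5 µL; 0% = neutral wells and 100% = wells with inactivated enzyme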
Target sequence (P55789 whole entry, looked up): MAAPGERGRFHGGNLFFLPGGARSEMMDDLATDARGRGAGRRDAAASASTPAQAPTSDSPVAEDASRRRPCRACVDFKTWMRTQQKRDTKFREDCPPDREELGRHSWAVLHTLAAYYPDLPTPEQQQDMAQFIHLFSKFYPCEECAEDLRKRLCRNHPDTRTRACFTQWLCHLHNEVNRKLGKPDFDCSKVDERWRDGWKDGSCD
LANA-H2A inh: blockers of LANA interaction with H2A/H2B – biochemical, FP readout, HTS, primary screen. Protein LANA1 (Human herpesvirus 8 type P (isolate GK18)), Q9QR71. cell-free LANA-H2A/H2B peptide, fluorescence polarization. inhibition, % (no concentration beside the values). 320,000 tested, 0.6% active. AID 2629, 2010; in the data active = inhibition mostly above about 10%, no sharp cut-off; inactive = mostly below about 6.7%;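 note: stock transfer was 7.5 nL into about 10 µL; 0% = median of vehicle wells and 100% = median of positive control wells; one replicate is shown; the record names a cut of 25% in any replicate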
T cruzi repl: inhibitors of intracellular T. cruzi growth, primary screen, luminescence, NIH3T3 host cells; T. cruzi beta-gal in NIH3T3, 90 h; inhibition, % (concentration not given with the values); 300,000 tested, 1.4% active; AID 1885, 2009;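 active = mean inhibition across valid replicates above about 55%, limit read from the data; inconclusive = mean below that limit but half or more replicates reach it; inactive = mean below it, under half of replicates reach it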;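 note: signal also drops with host cell toxicity which is not excluded here; 0% = plate median of DMSO wells and 100% = zero luminescence signal; higher percent means less beta-gal luminescence so fewer parasites; stock transfer was 50 nL into about 50 µL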
rRNA inh HTS: reduced GFP signal of wild-type E. coli, primary screen, bacterial rRNA inhibitor project, GFP/RFP fluorescence, OD600, single point; E. coli WT GFP vs humanized-ribosome RFP mutants, 24 h; stronger effect = lower value; DMSO median 0, no signal -100; GFP signal change (wild-type ribosome), % (concentration not given with the values); 350,000 tested, 1.6% active;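 active = significant combined selectivity score with lowered wild-type GFP, culture density cut under 30%, mutant RFP and density less affected; inactive = any of these conditions unmet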; note: one replicate is shown; some compounds called inactive have numbers as strong as hits
Bfl-1 A1 inh: caspase 3/7 activation in MEF A1-2A-BIM cells, primary screen, A1 inhibitor project, cell-based, luminescence, HTS; Caspase-Glo 3/7 luminescence, 3 h; percent of clofoctol response, vehicle zero; caspase activation, % (no concentration beside the values); 330,000 tested, 0.066% active; AID 2462, 2010;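 active = over half of replicate activation scores above 10%, or exactly half above 10 with the replicate mean above 10; inconclusive = replicate mean below 10 yet half the replicates above 10; inactive = over half of replicates below 10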;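 note: wells of about 30 µL received 50 nL stock; many hits fall short of the cut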
Calb FLC: C. albicans growth inhibition with fluconazole, primary screen, CaCi-2 strain, Alamar Blue fluorescence | C. albicans CaCi-2 (fluconazole-resistant clinical isolate) + fluconazole, 48 h | growth inhibition, % (no concentration beside the values) | 300,000 tested, 0.57% active | AID 1979, 2009;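 active = most replicates above 75%; inconclusive = exactly half above 75%; inactive = most below 75%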;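 note: all wells also contain fluconazole at 8 µg/ml as a sub-toxic cotreatment; 0% = median of DMSO wells and 100% = median of geldanamycin control wells; wells of about 8 µL received 7.5 nL stock; the first replicate is given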
rRNA inh HTS OD600: recorded beside rRNA inh HTS, whose call it bears; OD600 change, %; measured here: OD600 growth;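 optical density of the mix in the first replicate; 0 = DMSO median and -100 = no signal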
rRNA inh HTS RFP: further read-out of rRNA inh HTS, marked with its call; RFP signal change, %; measured here: RFP humanized mutant strains;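 first replicate; 0 = DMSO median and -100 = no signal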
* hit, by the source's call; ? = inconclusive; · = not tested or not shown. A portion of the library, so the mix of outcomes need not match the whole.

SMILES	Beta2AR agonist	Beta apoptosis	ALR H2O2 inh	LANA-H2A inh	T cruzi repl	rRNA inh HTS	rRNA inh HTS OD600	rRNA inh HTS RFP	Bfl-1 A1 inh	Calb FLC
COc1ccc2[nH]cc(CCNC(=O)Nc3ccccc3)c2c1	5	-12	1	1.3	-1	-8	-3	-5.0	0.9	-3
CCSc1nc(-c2ccccc2)c(C#N)c(=O)[nH]1	4	-2	10	4.2	-9	·	·	·	1.7	18
COc1cccc(C2Nc3ccccc3C(=O)N2O)c1O (stereo not drawn)	-1	-11	87*	0.8	-11	·	·	·	-0.5	2
CCOC(=O)C1(Cc2ccccc2C(F)(F)F)CCN(Cc2ccon2)CC1	18	-7	3	-3.5	13	-6	-3	0.0	0.6	0
COc1ccc(NC(=O)CS(=O)(=O)c2cn(CC(=O)N(C(C)C)C(C)C)c3ccccc23)c(OC)c1	7	1	-18	1.2	9	8	9	-0.4	-0.1	·
O=C(NCc1cccs1)c1noc2c1CCCCC2	-11	5	-5	1.3	-13	·	·	·	-0.8	-5
CC1(C)Cc2nc(-c3ccccc3)nc(SCC(=O)N3CCOCC3)c2CO1	-20	·	-5	1.6	10	-2	-3	-4.4	-0.7	5
C#CCOCCOCCOCCNc1nc(N2CCN(C(=O)[C@H]([C@@H](C)CC)n3cc([C@@H](N)CC(C)C)nn3)CC2)nc(N2CCN(C(=O)[C@H](CCCCN)n3cc([C@@H](N)C(C)CC)nn3)CC2)n1 (stereo partly drawn)	2	-18	·	-6.0	-8	·	·	·	0.8	-8
CCCN1CNc2c(c(=O)[nH]c(=S)n2CCc2ccc(OC)c(OC)c2)C1	2	-3	40	1.8	1	2	0	6.9	0.5	-3
Cc1ccc(OCc2cc(C(=O)NCc3ccc(OC(F)(F)F)cc3)no2)cn1	52*	-5	2	-1.7	-5	-23	-17	-3.9	-0.3	9
Cn1nc(C(=O)NCCCN2CCCCC2)c2c1-c1ccccc1S(=O)(=O)C2	4	-2	-3	1.6	2	·	·	·	0.5	12
CCOC(=O)Cc1csc(NC(=O)CN(C)S(=O)(=O)c2cccc3cccnc23)n1	-8	·	67	-0.9	·	-2	1	-2.4	2.0	·
O=C(NCCCNC(=O)c1cnccn1)c1cccc(F)c1	-6	1	-10	4.3	-4	3	8	-1.1	0.2	0
CCn1c(=S)sc2c(=O)n(CC(=O)Nc3ccc(C(C)=O)cc3)c(C)nc21	-7	0	2	1.4	7	12	4	0.8	-1.3	-6
CN(C)S(=O)(=O)c1ccc(Cl)c(C(=O)Nc2nc3ccccc3[nH]2)c1	-7	0	-6	2.4	-8	-20	-26	-3.8	?	0
Fc1cccc2sc(N3CCCC3)nc12	-11	2	15	0.1	1	2	-2	-2.5	-2.3	-3
COc1ccc(Nc2c(-c3ccc(OC)cc3)nc3cnccn23)cc1	0	-3	98*	-1.6	10	-22	-24	-1.1	0.1	20
Cc1ccc(-c2cc(N)on2)cc1	-3	-9	-3	-1.6	2	·	·	·	1.8	-2
Cc1ccnc(SCC(=O)NC2CCCCCC2)n1	1	3	-2	-2.4	-2	10	15	2.0	0.3	·
Nc1ccc(SCc2nc3cccc4c3n2CCC4)cc1	-15	-4	-5	-9.4	8	8	-8	1.4	0.1	-21
CSc1nc2ccc3nc(NC(=O)C4COc5ccccc5O4)sc3c2s1 (stereo not drawn)	0	·	0	-0.2	25	15	10	6.7	0.0	7
CCc1ccc(C(=O)Cn2cnc3cc([N+](=O)[O-])ccc3c2=O)cc1	13	-5	-21	0.9	46	5	10	-5.2	0.2	19
CSc1nsc(N/N=C/c2ccccc2)c1C#N	-2	36	-2	-6.5	-7	-22*	-11*	-0.7*	-0.6	-1
COc1cccc2c1[C@@H]1CN(CCCCn3c(=O)[nH]c4c(sc5ncc(-c6ccccc6)nc54)c3=O)C[C@@H]1CO2	31	22	-16	-4.5	·	-35	-44	13	0.1	·
O=C(Nc1cc(Cl)ccc1Cl)c1noc2c1CCCC2	-15	2	-8	1.7	4	4	15	-0.3	-1.1	-6
(listing goes on)
SMILES	Beta2AR agonist	Beta apoptosis	ALR H2O2 inh	LANA-H2A inh	T cruzi repl	rRNA inh HTS	rRNA inh HTS OD600	rRNA inh HTS RFP	Bfl-1 A1 inh	Calb FLC
OCCC1CN(Cc2ccon2)CCN1CCc1ccccc1 (stereo not drawn)	11	-3	-3	-2.5	-9	13	2	-0.3	0.0	-5
COc1ccc(NC2CCCN(C(=O)c3ccc(OC)o3)C2)cc1 (stereo not drawn)	2	2	99*	2.0	7	5	2	0.4	0.6	6
COc1ccccc1N1CCN(C2CCCN(C(=O)c3cccc(-c4ccco4)c3)C2)CC1 (stereo not drawn)	1	-4	14	-1.7	11	4	-18	8.4	-0.2	6
OC(COCc1ccco1)CN1CCN(C(c2ccccc2)c2ccccc2)CC1 (stereo not drawn)	9	-4	1	-6.9	22	·	·	·	-0.7	-22
O=C(CN1CCOCC1)Nc1ccc(Br)cn1	2	-3	0	-2.2	13	·	·	·	0.6	-2
Cc1ccc(CNC(=O)c2ccc(CNc3c(N4CCCC4)c(=O)c3=O)cc2)cc1	-3	·	-5	-2.1	-3	3	1	-1.0	0.0	-4
Cc1cccc(N2C(=O)/C(=C\c3ccc(C(=O)O)cc3)c3ccccc3C2=O)c1	29	-5	·	-6.4	-8	21	15	-0.9	-1.0	-1
CC(C)(C(=O)c1ccccc1)/[N+]([O-])=C/c1ccc(Br)cc1	1	-1	2	0.7	-10	8	7	-14	0.8	-7
O=C1NC[C@@H](Cc2ccc(O)cc2)N(CC2CCCCC2)C1=O	-3	-4	·	0.7	-5	-8	2	-3.8	0.8	10
Cc1cccc(C(=O)N2CCc3cc(-c4csc(NC(=O)CN5CCCC5)n4)ccc32)c1	35	9	-4	13	17	-3	-12	22	0.1	-7
O=C(CCCN1C(=O)/C(=C/c2cccs2)SC1=S)NNC(=O)c1ccc(F)cc1	-9	-10	-18	2.4	-2	·	·	·	0.5	5
Cn1nc(C(F)(F)F)c2cc(C(=O)Nc3ccc(Cl)cc3)sc21	12	7	4	4.4	14	·	·	·	-0.9	-4
COCCN1C(=O)N[C@H](c2cccc(C(F)(F)F)c2)C(C(=O)OC)=C1C	·	-7	·	-4.0	-20	·	·	·	0.6	-11
Cc1ccc2ncnc(Nc3cccc([N+](=O)[O-])c3)c2c1	8	·	-11	-2.6	16	8	19	4.1	0.3	19
CCOc1ccc(/C=N/NC(=O)CN2CCCCCCC2)cc1	9	-3	-3	3.4	0	9	1	-4.1	-0.1	?
Cc1ccc(/C=C2/C(=O)N(c3ccccc3)C(=S)N2C)o1	-3	·	-5	3.3	-1	·	·	·	0.3	1
CC(/C=C1\N=C(SCc2ccccc2)SC1=O)=C\c1ccccc1	1	9	64	-4.3	1	·	·	·	-0.8	15
Cc1cccc(-c2noc(-c3ccc4c(c3)OCO4)n2)c1	-4	4	-4	4.5	0	12	8	1.5	-7.7	-5
Cc1ccccc1CS(=O)(=O)CCC(=O)NCCCN1CCOCC1	-15	1	-6	4.7	-4	·	·	·	-0.2	2
COCCN(Cc1nnc(-c2cccs2)o1)C(=O)CN1C(=O)NC2(CCCCC2)C1=O	-7	-10	-6	-4.9	·	8	11	-0.7	-0.9	·
CC1CC(Nc2ccccc2)c2ccccc2N1C(=O)c1ccccc1F (stereo not drawn)	-1	7	·	4.6	9	0	5	3.3	1.6	7
COc1ccc(CNCCC2(C(C)C)CCOC(C)(C)C2)cc1 (stereo not drawn)	1	-2	-7	1.3	27	8	0	0.4	0.5	11
CCCN(CC(=O)Nc1ccccc1OC)C(=O)Cc1ccccc1F	4	-1	-17	-2.5	-2	2	-7	1.1	-0.5	4
Cc1nc(-c2ccccc2)sc1-c1ccn[nH]1	-2	-2	·	2.2	1	-19	-23	-2.9	-6.1	24
COc1ccc(NS(=O)(=O)c2cn(C)c(=O)n(C)c2=O)c(OC)c1	-3	-23	-9	-0.6	-7	11	15	4.3	-0.1	8
The list goes on:
SMILES	Beta2AR agonist	Beta apoptosis	ALR H2O2 inh	LANA-H2A inh	T cruzi repl	rRNA inh HTS	rRNA inh HTS OD600	rRNA inh HTS RFP	Bfl-1 A1 inh	Calb FLC
CN1CCN(/C=C2\SC(=S)NC2=O)CC1	2	1	60	0.0	3	·	·	·	-1.1	-17
COCCn1c(SCC(=O)Nc2ccc(C(C)=O)cc2)nnc1-c1ccco1	-2	-7	·	3.8	6	-4	1	-2.9	0.1	-11
CC(=O)N1CCN(c2ccccc2NC(=O)COc2cc(C)cc(C)c2)CC1	-1	5	·	-8.2	-2	-6	-16	-0.6	0.3	21
CC(C)CC(NC(=O)C1CCCN1C(=O)OC(C)(C)C)C(=O)NCC(N)=O (stereo not drawn)	23	·	·	-28	-4	·	·	·	·	10
Cc1cccc(NC(=O)Nc2cccc(C#N)c2)n1	-9	-8	2	1.2	12	7	7	-0.8	0.4	4
CCCC(c1nnnn1C(C)(C)C)N1CCN(C(=O)c2ccco2)CC1 (stereo not drawn)	-8	-3	5	-4.6	2	17	9	-1.7	-0.6	-4
Cc1ccccc1NC(=O)C(c1ccccc1)C1CCCC1 (stereo not drawn)	-13	-12	-2	0.2	29	8	3	-1.0	-0.2	-13
COc1ccc(-c2csc(N(Cc3ccccc3)C(=O)COc3ccc(Cl)cc3)n2)cc1	3	-7	-2	-5.6	-18	·	·	·	0.5	27
N#C/C(=C\c1ccco1)C(=O)NCc1ccccc1	0	-4	0	-2.0	-12	·	·	·	-0.3	-23
Cc1nn(S(=O)(=O)c2ccc(F)cc2)c(C)c1S(=O)(=O)N1CCOCC1	-5	-3	2	-2.9	-1	14	17	0.2	-0.8	-2
COc1ccc(CCNC(=O)c2ccc3c(c2)NC(=O)C(N2CCOCC2)S3)cc1OC (stereo not drawn)	4	5	-5	-3.9	-6	·	·	·	0.6	-2
CC(C)c1ccc(NC(=O)COc2ccc(C3SCCS3)cc2)cc1	2	-8	-20	-3.9	5	17	7	-0.4	0.4	-9
CCC(=O)Nc1nc(CC(=O)Nc2ccccc2OC)cs1	-5	3	3	-0.4	-9	·	·	·	-0.3	-4
O=C(NCC1COc2ccccc2O1)C1CCN(S(=O)(=O)c2ccccc2)CC1 (stereo not drawn)	-8	0	-9	-0.6	·	-3	2	2.4	1.0	·

Results in Calb FLC, rRNA inh HTS OD600 and Beta2AR agonist, for 2 of the compounds above:
compound | Calb FLC | rRNA inh HTS OD600 | Beta2AR agonist
CC(C)c1ccc(NC(=O)COc2ccc(C3SCCS3)cc2)cc1 | -9 | 7 | 2
CCC(=O)Nc1nc(CC(=O)Nc2ccccc2OC)cs1 | -4 | · | -5
